Assay outcomes from PubChem.
Vaccinia Venus: inhibitors of vaccinia virus (Venus reporter); Vaccinia virus Venus reporter expression, fluorescence; Potency, µM (series often up to 36.5 µM), inactives show at the highest dose activity change, negative = inhibition, most hits filed as inhibitors; 330,000 compounds, 0.46% hits; active means well fitted inhibition curve with a large enough effect; inconclusive means small, poorly fitted or top-dose-only effect; inactive means no such curve, though single readings can be large or run the other way; tested in A549 cells; further: nearly all actives have a fitted effect of over 30% in size; inactives centre near -10
Vaccinia mCherry: inhibitors of vaccinia virus infection (mCherry reporter signal); Vaccinia virus mCherry reporter infection, fluorescence; about a quarter of the inactives have no number; Potency, µM (doses to about 36.5 µM), for inactives: at the top dose activity change, negative = inhibition, actives largely listed as inhibitors; 310,000 compounds, 0.63% hits; active = well fitted inhibition curve with a large enough effect; inconclusive = small, poorly fitted or top-dose-only effect; inactive = no such curve, though single readings can be large or run the other way; tested in A549 cells; further: nearly all actives have a fitted effect of over 35% in size; inactives centre near -10
* = called active by the depositor; i = inactive; ? = inconclusive; / = no result given; [ ] = remark or other dose. On the % scale 0 is the no-effect control and ±100 the full control effect; potency means the concentration at half of the fitted maximal effect. Hits appear at their usual frequency (roughly 0.82% active in at least one column).

smiles,Vaccinia mCherry,Vaccinia Venus
O=C(N/C(=C/c1ccccc1)C(=O)N1CCCCCC1)c1ccccc1,i,1%
COc1cc(-c2c(NC(=O)c3ccco3)oc3ccc(Cl)cc3c2=O)cc(OC)c1OC,-16%,-22%
O=C(O)c1cccc(NC(=O)c2ccccc2NC(=O)c2ccco2)c1,3%,4%
Cc1c(CC(=O)N2CCCCC2)c(=O)oc2cc(O)ccc12,7%,3%
COc1ccccc1NC(=O)COC(=O)c1ccc2c(=O)n3c(nc2c1)CCC3,i,-1%
CSc1nc(C)c2c(n1)N(c1ccc(C(C)C)cc1)CC2,i,-7%
Cc1ccccc1N(CC(=O)NC1CCCC1)C(=O)C1(C)CC(=O)N=C2C=CC(Cl)=CN21 (centres undefined),-4%,-3%
COc1ccccc1N1C(=O)CC(Sc2n[nH]c(-c3cccc(C)c3)n2)C1=O (centres undefined),-14%,-8%
COC(=O)[C@]12CCCCC=C1N(Cc1cccc3ccccc13)C(=O)[C@H](CC(=O)N1CCC(c3ccccc3)CC1)C2,3%,-13%
CC(=O)c1cccc(NC(=S)NCCCCc2ccccc2)c1,-6%,-21%
COc1ccccc1S(=O)(=O)N(C)C[C@@H]1Oc2ncc(-c3ccc(C)cc3)cc2C(=O)N([C@H](C)CO)C[C@@H]1C,-28%,?
COc1ccc(OCCOC(=O)CCS(=O)(=O)c2ccc(C)cc2)cc1,i,-6%
CCCC(=O)N1c2nc(C(C)C)nn2C2(CCCCC2)[C@@H]2CCCC[C@@H]21,-17%,-23%
O=C(NCc1ccco1)c1ccc(COc2cc(Cl)ccc2Cl)cc1,-36%,?
COCCCNC(=O)CCS(=O)(=O)Cc1ccc(C)cc1,-20%,-16%
Cc1cccc(C)c1Nc1nnc(SCc2nc3ccccc3s2)s1,-22%,-12%
Cc1c(NCc2cccnc2)cccc1C(=O)O,i,-14%
CCCCOc1ccc(C(O)C(CN2CCCCC2)c2ccccc2)cc1 (centres undefined),-10%,-9%
COc1cc(C(=O)N2CCC(C(N)=O)CC2)ccc1OCc1c(C)noc1C,-12%,2%
COc1ccccc1C(=O)COC(=O)CN1C(=O)NC2(CCCC2)C1=O,-16%,-11%
CCc1nn(CC(=O)NCCc2ccc(OC)c(OC)c2)c(=O)c2cc3occc3n12,2%,-3%
CCOC(=O)C1=C(CSc2nccn2C)NC(=O)NC1c1ccc2c(c1)OCO2 (centres undefined),-15%,10%
CCC1Oc2ccc(C)cc2N(CC(=O)NCc2cc(OC)ccc2OC)C1=O (centres undefined),-9%,-5%
Cc1c(-c2ncn[nH]2)sc(C#N)c1-c1ccccc1,-20%,2%
CSc1ccccc1C(=O)OCC(=O)Nc1ccc(N2CCOCC2)cc1,i,-2%
CCC1Nc2ncnc(N3CCOCC3)c2N(Cc2ccc(C)cc2)C1=O (centres undefined),i,-16%
CC(O)CNCCCOc1ccccc1OCc1ccccc1 (centres undefined),1%,2%
Cc1nnc(NC(=O)c2nc(SCc3ccccc3F)ncc2Cl)s1,-6%,-1%
NC(=O)CC(NC(=O)Cc1ccc(Cl)cc1)c1ccc(NC2CCN(Cc3ccccc3)CC2)c([N+](=O)[O-])c1 (centres undefined),-25%,-28%
CCOC(=O)c1ccc(S(=O)(=O)N2CCN(S(=O)(=O)CC)CC2)cc1,-8%,1%
Clc1cccc(OCCCCCN2CCOCC2)c1,i,-3%
C[C@@H]1CN([C@@H](C)CO)C(=O)c2cc(Br)cnc2O[C@H]1CN(C)C(=O)c1cccc(F)c1,i,-6%
CCc1ccc2[nH]c(=O)c(CN(Cc3ccc4c(c3)OCO4)C(=O)c3ccco3)cc2c1,/,-28%
CCSc1ccccc1C(=O)NC1CCCCC1,-11%,-15%
Cc1cc(Br)cnc1NC(=S)Nc1ccc(F)cc1F,-17%,-5%
O=C(CNC(=O)c1ccc(-c2ccccc2)cc1)OCc1ccc(Cl)cc1,-12%,-10%
CC(C)c1ccc(NC(=O)Cc2ccc(NC3=NC4CS(=O)(=O)CC4S3)cc2)cc1 (centres undefined),-27%,-5%
CCCCNC(=O)c1cccc(NC(=O)C(=O)c2ccccc2NC(C)=O)c1,-16%,-5%
Cc1ccc(/C=C2/C(=O)NC(=O)N(C)C2=O)cc1,i,11%
COc1ccc(NC(=O)c2nnn(Cc3ccc(Br)cc3F)c2N)c(OC)c1,-9%,-4%

Arranged by SMILES length (low to high): part of the list above.
smiles,Vaccinia mCherry,Vaccinia Venus
Cc1cc(Br)cnc1NC(=S)Nc1ccc(F)cc1F,-17%,-5%
CCCCNC(=O)c1cccc(NC(=O)C(=O)c2ccccc2NC(C)=O)c1,-16%,-5%
CCOC(=O)C1=C(CSc2nccn2C)NC(=O)NC1c1ccc2c(c1)OCO2 (centres undefined),-15%,10%
CC(C)c1ccc(NC(=O)Cc2ccc(NC3=NC4CS(=O)(=O)CC4S3)cc2)cc1 (centres undefined),-27%,-5%
CCc1ccc2[nH]c(=O)c(CN(Cc3ccc4c(c3)OCO4)C(=O)c3ccco3)cc2c1,/,-28%

Following part
smiles,Vaccinia mCherry,Vaccinia Venus
Cc1c(C(=O)Nc2cccc(F)c2)cnn1-c1ccccc1,-5%,-20%
Cc1ccc(NCc2nnc(SCC(=O)Nc3ncc(C)s3)n2CC2CCCO2)c(C)c1 (centres undefined),i,-20%
COc1ccccc1NS(=O)(=O)c1ccc(NC(=O)c2nc3ncccn3n2)cc1,i,-6%
COc1cc(/C=C/C(=O)OCC(=O)N2CCc3ccccc3C2)ccc1O,-28%,-14%
Cc1cc(C(=O)N(C)CC(=O)Nc2ccc(Cl)c(C(F)(F)F)c2)no1,-12%,-24%
Nc1cccc(C(=O)O)c1,i,-9%
Cc1nc2nc(NCc3ccccc3Cl)[nH]n2c(=O)c1Cc1ccccc1,-5%,-11%
COc1ccc(NC(=S)NN2CCOCC2)cc1OC,-13%,-1%
COc1cc(OC)c(OC)cc1/C=N/NC(=S)NCCN1CCOCC1,-4%,-10%
CCOc1ccc(C(=O)Nc2onc3c2CCCC3)cc1,-10%,-6%
CCN(CC)CCN1C(=O)/C(=C\c2ccc(Cl)c([N+](=O)[O-])c2)SC1=Nc1ccc(OC)cc1,?,-23%
Cn1c(=O)c(=O)n(C)c2cc(S(=O)(=O)CCC(=O)N3CCOCC3)ccc21,5%,-1%
O=C(COC(=O)C1CCCCC1)Nc1cccc(F)c1,-16%,-1%
COc1cccc(-c2nnc(NC(=O)C(C)C)o2)c1,i,-10%
O=C(CC(NCCN1CCOCC1)C(=O)O)Nc1cccc(Cl)c1 (centres undefined),15%,-2%
N#CCCN(Cc1cccnc1)S(=O)(=O)c1ccc(S(=O)(=O)N2CCCCCC2)cc1,-3%,-7%
O=C(N/N=C/c1ccc2cccnc2c1)c1nc2ccccc2c(=O)[nH]1,-12%,-2%
O=C(CCCCn1c(=O)c2ccccc2n(Cc2cccc(F)c2)c1=O)NCCc1ccccc1,-24%,-17%
CCCCn1c(N)c(N(Cc2ccccc2OC)C(=O)c2c(CC)noc2C)c(=O)[nH]c1=O,-13%,-11%
OC1CCCN(C(=S)Nc2ccc(SC(F)F)cc2)C1 (centres undefined),4%,4%
CCc1nc2ccc(C(=O)NCCN(C)C)cn2c1N(CC)CCOC,43%[activator],0%
Cc1nc2nc(-c3ccccc3)cn2nc1C,-12%,-19%
O=C(CSc1ncn(-c2ccccc2)n1)Nc1ccc2c(c1)OCO2,-7%,-11%
C=CCn1c(=O)[nH]c(=O)c2c(N)c(C(=O)c3ccc(OC)cc3)sc21,-6%,-25%
Cc1c(Cl)c(-c2n[nH]c(=S)n2Cc2ccco2)nn1C,-6%,1%
Cc1ccc(S(=O)(=O)Nc2nc3n(n2)C(c2ccc(Cl)cc2)C=C(c2ccccc2)N3)cc1 (centres undefined),-1%,2%
CCOC(=O)c1sc2nccc(N(C)C)c2c1N=CNOC,-18%,-11%
COc1ccccc1C(=O)N/N=C(\C)CC(=O)Nc1ccc2c(c1)OCCO2,-22%,-13%
CCCCNC(=O)C1(C)CCN1C(=O)c1cncc(Br)c1 (centres undefined),24%,-11%
CC(=O)c1ccc(NS(=O)(=O)c2c(C)nc3scc(C)n3c2=O)cc1,-19%,-14%
CC(C)N(CCNC(=O)COc1ccc2oc3c(c2c1)CCCC3)C(C)C,?,-25%
COc1ccc(OCCn2c(C(C)Oc3ccccc3)nc3ccccc32)cc1 (centres undefined),-10%,-3%
CN1C(=O)/C(=C/c2cc(N=Nc3ccccc3)ccc2O)SC1=S,34%[activator],6%
Clc1c(-c2ccccc2)nc2ccccn12,i,-11%
CCN(CC(=O)NCc1ccc(F)cc1)C(=O)c1ccc(C)o1,-1%,-3%
Cc1ccc(NC(=O)CCCc2ccccc2)nc1,i,-11%
COCCCN1C(=O)c2ccc(C(=O)Nc3ccccc3OC)cc2C1=O,-11%,-8%
O=C(Cc1cccc2ccccc12)NCCc1ccccc1,-16%,-6%
O=C(c1ccc2ccccc2c1)c1cccc(F)c1C(=O)O,i,-7%
O=c1cc(/C=C/c2ccccc2)oc2c1ccc1ccccc12,?,?
C/C(=N\NC(=O)c1ccoc1C)c1cccc2ccccc12,-12%,-2%
O=C(NCCc1nnc2n1CCN(Cc1ccc(F)cc1)CC2)c1ccco1,-3%,-14%
COC(=O)[C@H](CCSC)NC(=O)Nc1cccc(Br)c1,-8%,-10%
CCNc1nc(NCC)n2c(SCC(=O)Nc3cccc(F)c3)nnc2n1,-14%,-14%
O=C(NCCc1ccc(Cl)cc1)c1ccc2nc(Cc3ccccc3)oc2c1,-4%,8%
N#CC1=C(N)OC2=C(C(=O)CCC2)[C@]12C(=O)N(CC(N)=O)c1ccccc12,-12%,-4%
C=C1CCC(C)C(C)(CCC2=CCOC2=O)C/C=C\C=C/1C(=O)O (centres undefined),0%,-4%
O=C(NCC1CCCO1)c1ccc2[nH]c3c(c2c1)CCCC3 (centres undefined),-22%,-14%
NC(=O)C1CCCN(C(=O)Nc2cccc3ccccc23)C1 (centres undefined),/,13%
CCOC(=O)N1CCN(C(=O)CSCc2ccc(C)cc2)CC1,-11%,-9%
CCCN(CC1CCCO1)C(=O)c1cc(COc2cccc(OC)c2)on1 (centres undefined),-15%,-6%
Cc1ccc(C)c(NC(=O)CN2C(=O)CCc3ccccc32)c1,-15%[7.34 µM],-8%[7.34 µM]
CSc1nc(-c2ccccc2)nn1S(=O)(=O)c1ccccc1,/,-5%
Cc1cc(C)c(NC(=O)C2CCN(S(C)(=O)=O)CC2)c(C)c1,-5%,-12%
Cc1ccc2c(c1)C(=NC1CCCCC1)c1cc3ccccc3nc1-2,-4%,11%
COc1ccc(NS(=O)(=O)c2ccc3c(c2)CC(C)N3C(C)=O)c(OC)c1 (centres undefined),-16%,-2%
Cc1ccsc1/C=N/NC(=O)c1sccc1C,/,-15%
COc1ccc(NC(=O)c2oc3ccccc3c2NC(=O)Cc2cccs2)c(OC)c1,-15%,-16%
CCn1c(O)c(C#N)c(C)cc1=O,i[7.34 µM],2%[7.34 µM]
COc1ccc(-c2cc3nc[nH]c(=O)c3s2)cc1,-19%,-10%

(more compounds)
smiles,Vaccinia mCherry,Vaccinia Venus
COC(=O)[C@]1(C)CC[C@@]2(C)CC[C@@]3(C)C4=CCc5c(cc(O)c(O)c5C)[C@]4(C)CC[C@@]3(C)C2C1 (some centres undefined),20%,2%
CC12CN3CC(C)(CN(C1)C3c1ccc(OCc3ccccc3)cc1)C2=O (centres undefined),-7%,-9%
CCOc1ccc(NC(=O)c2ccc(CSc3nnnn3C)cc2)cc1,i,-7%
COc1c2c(cc3oc(C)cc(=O)c13)OC(C(C)(C)OC1OC(CO)C(O)C(O)C1O)C2 (centres undefined),-11%,-10%
Cc1ccc(S(=O)(=O)N2C[C@H]3C(=O)C[C@@H](c4ccccc4)N(S(=O)(=O)c4cccc(C)c4)[C@H]3C[C@H]2c2ccccc2)cc1,6%,-6%
COC(=O)c1c(C)[nH]c(C(=O)C(C)OC(=O)c2cc(C)oc2C)c1C (centres undefined),-5%,-15%
CCn1c(C)nc2cc(S(=O)(=O)C(F)(F)C(F)C(F)(F)F)ccc21 (centres undefined),-17%,-22%
COc1cccc2c1cc([N+](=O)[O-])c1c(C(=O)O)cc3c(c12)OCO3,-20%,-8%
CCn1c(SCC(=O)Nc2ccc3[nH]c(=O)[nH]c3c2)nc2ccccc21,-10%,-3%
CCC(=O)Nc1ccc(NC(=S)Nc2ccccc2)cc1,i,-8%
Cc1cccc(OCCCn2c(CCNC(=O)C(C)C)nc3ccccc32)c1,-29%,-30%
O=Cc1ccc([B-](F)(F)F)s1,-3%,3%
COc1cccc(OCc2cc(C(=O)N(C)CCC3CCCCO3)no2)c1 (centres undefined),-16%,-10%
CC1CCN(C(=O)c2cc3ccccc3o2)CC1,-12%,-14%
COCCNC(=O)CCc1nc2cccnc2n1Cc1ccc(OC)cc1,-9%[7.34 µM],-8%[7.34 µM]
NC(=S)N/N=C/c1coc2cc(Br)ccc2c1=O,-6%[7.34 µM],-6%[7.34 µM]
